VCAM-1 inhibition – suppression of endothelial VCAM-1 upregulation – cell-based, plate reader, pooled HUVEC, TNFa stimulus (AID 454); HUVEC TNFa-induced VCAM-1 surface immunofluorescence, plate reader; numbers were filed only for top-ranked candidate wells; inhibition, % at 5 µM; 10,000 compounds, 0.2% hits;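 active = compound among top-ranked inhibitors of TNF-induced VCAM-1 adhesion protein staining, with the hit upheld by image or statistical review; inactive = the rest, including hits rejected on review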;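 also: 0% = TNFa with vehicle and 100% = cells without TNFa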
FPRL1 ligand – ligands of human FPRL1, also counter-screen for FPR ligands; 24,000 compounds, 0.3% hits; FPRL1-expressing cells, fluorescent ligand binding inhibition, flow cytometry; P25090; inhibition, %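 (tested at 6.7 µM)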;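 also: 0% = buffer alone and 100% = receptor blocker peptide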
Target sequence (P25090 whole entry, looked up): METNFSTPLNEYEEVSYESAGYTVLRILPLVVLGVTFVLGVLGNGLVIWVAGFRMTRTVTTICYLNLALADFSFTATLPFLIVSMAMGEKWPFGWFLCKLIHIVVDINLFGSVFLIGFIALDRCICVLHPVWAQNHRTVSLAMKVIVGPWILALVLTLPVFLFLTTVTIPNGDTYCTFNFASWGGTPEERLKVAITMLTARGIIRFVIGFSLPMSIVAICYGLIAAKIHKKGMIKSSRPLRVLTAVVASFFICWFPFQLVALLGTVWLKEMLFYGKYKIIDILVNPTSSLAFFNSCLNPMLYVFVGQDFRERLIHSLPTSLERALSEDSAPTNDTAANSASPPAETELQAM
VCAM-1 imaging – suppression of endothelial VCAM-1 upregulation – imaging, high-content imaging, pooled HUVEC, TNFa stimulus (AID 456). inhibition, % at 5 µM, or IC50 in µM where a hit was titrated. HUVEC TNFa-induced VCAM-1 surface expression, immunofluorescence imaging; numbers were filed only for top-ranked candidate wells. 10,000 compounds, 0.2% hits;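 active = top tenth filtered wells with inhibition above zero that passed visual or statistical confirmation; inactive = the rest, including hits rejected on review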;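 also: 0% = stimulated vehicle wells and 100% = unstimulated cells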
FPR binder – human FPR ligand, with FPRL1 counter-screen; AID 440; FPR-expressing cells, fluorescent ligand binding, flow cytometry; 24,000 compounds, 0.74% hits; inhibition, %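 (tested at 6.7 µM)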;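 also: 0% = buffer wells and 100% = receptor blocker peptide wells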
Target sequence (P21462 whole entry, looked up): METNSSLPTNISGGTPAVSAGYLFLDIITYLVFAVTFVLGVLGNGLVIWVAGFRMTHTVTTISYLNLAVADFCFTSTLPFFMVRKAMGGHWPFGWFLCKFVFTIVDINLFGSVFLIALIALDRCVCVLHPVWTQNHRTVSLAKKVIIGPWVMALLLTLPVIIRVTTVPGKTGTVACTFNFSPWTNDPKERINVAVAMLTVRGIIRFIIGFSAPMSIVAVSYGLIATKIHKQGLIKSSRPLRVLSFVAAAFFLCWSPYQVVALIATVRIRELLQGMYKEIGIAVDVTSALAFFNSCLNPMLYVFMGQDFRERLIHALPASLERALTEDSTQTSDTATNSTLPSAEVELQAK
VCAM-1 up imaging – enhancers of VCAM-1 display on endothelial cells, imaging, high-content imaging, pooled HUVEC, TNFa stimulus (AID 457); calls only; 10,000 compounds, 0.2% hits; Pooled HUVEC, TNFa-induced VCAM-1 immunofluorescence imaging; hits of this screen are not shown here;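 active = a top-ranked rise in VCAM-1 staining upheld on image or statistical review; inactive = the rest, including candidates rejected on review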;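 also: compounds tested at 5 µM in the well; cells exposed to compound for 24 hours before fixing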
An asterisk follows results filed as active; i = inactive; / = not tested or not shown.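 The calls were made as follows, unless noted: active = mean above 30%; inconclusive = self-fluorescent; inactive = the rest.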

The line under a structure holds: VCAM-1 up imaging, FPRL1 ligand, VCAM-1 imaging, VCAM-1 inhibition, FPR binder
- Cc1ccc(S(=O)(=O)N2CCCC2C(=O)Nc2ccc(O)cc2)cc1 (stereo not drawn)
→ /, 2, /, /, -2
- CCOc1ccc(NC(=O)c2cccc3c2C(=O)N(Cc2cccnc2)C3)cc1
→ /, -8, /, /, -3
- Cc1cccn2cc(CNC(=O)c3ccco3)nc12
→ /, -3, /, /, 2
- CCOC(=O)Nc1ccc2ncn(C)c(=O)c2c1
→ /, -3, /, /, -4
- C=CCNC(=O)C1CC(=O)N(c2ccc(OCC(=O)Nc3ccc(OC)cc3)cc2)C1 (stereo not drawn)
→ i, 2, i, i, 2
- O=S(=O)(NC1CCCc2ccccc21)c1cnc[nH]1 (stereo not drawn)
→ /, -2, /, /, -3
- COCCNC(=O)CC(NS(=O)(=O)c1ccc(C)cc1)c1ccco1 (stereo not drawn)
→ /, -2, /, /, -2
- Cc1ccccc1Cn1cnc2c(nnn2Cc2ccc(F)cc2)c1=O
→ /, 1, /, /, 5
- Cc1ccc(OC(=O)CCc2c(C)nc3ncnn3c2C)cc1
→ i, 1, i, i, 7
- CCCOC(=O)Nc1sc2c(c1C(=O)OCC)CCC2
→ /, -9, /, /, -13
- O=C1C2ON(c3ccccc3)C(c3cccnc3)C2C(=O)N1c1ccccc1 (stereo not drawn)
→ i, 5, i, i, 23
- CCc1ccccc1NC(=O)c1cc2sccc2n1C
→ /, -9, /, /, -1
- CCOC(=O)c1sc(NC(=O)CSc2nnc3c4ccccc4n(CC)c3n2)nc1C
→ i, -1, i, i, -8
- CC(C)C[C@H]1C(=O)N2CCC[C@H]2[C@]2(O)O[C@](NC(=O)[C@@H]3C=C4c5cccc6[nH]c(Br)c(c56)CC4N(C)C3)(C(C)C)C(=O)N12 (stereo partly drawn)
→ i, -6, 11µM*, i, 6
- COc1ccc(OC)c(C2N(c3ccccn3)C(=O)C3CCCN32)c1 (stereo not drawn)
→ /, -4, /, /, -2
- O=C(CSc1oc(-c2ccc(F)cc2)nc1S(=O)(=O)c1ccc(F)cc1)NCC1CCCO1 (stereo not drawn)
→ /, 4, /, /, 15
- COc1cccc(C(=O)Nc2cnc(NC(=O)c3ccco3)cc2C)c1
→ i, 0, i, i, 0
- CCOC(=O)c1c(C)c(C(=O)NCc2ccc3c(c2)OCO3)c(C)n1C
→ /, -3, /, /, -1
- CCOC(=O)CSc1nc2c(sc(=S)n2CCc2ccccc2)c(=O)n1Cc1ccco1
→ /, -8, /, /, 2
- O=S(=O)(NCc1ccccn1)c1ccc2c(c1)OCCO2
→ i, -2, i, i, 2

Continued, starting with the last 2 of the part before.
The line under a structure holds: VCAM-1 up imaging, FPRL1 ligand, VCAM-1 imaging, VCAM-1 inhibition, FPR binder
- CCOC(=O)CSc1nc2c(sc(=S)n2CCc2ccccc2)c(=O)n1Cc1ccco1
→ /, -8, /, /, 2
- O=S(=O)(NCc1ccccn1)c1ccc2c(c1)OCCO2
→ i, -2, i, i, 2
- Cc1ccc(OCCNC(=O)c2ccccc2N)cc1
→ /, 5, /, /, 0
- CCN1CCN(C(c2cccs2)C(C)NC(=O)CC(C)C)CC1 (stereo not drawn)
→ /, 9, /, /, 3
- COC(=O)CCCCCc1ccc(C(C)=O)s1
→ i, 2, i, i, 2
- CCOc1ccc(CCNC(=O)CN2CCN(Cc3ccccc3C)C2=O)cc1OCC
→ /, 0, /, /, 1
- CCOC(=O)c1sc2nc(CC(=O)OC)nc(NCC(=O)OC)c2c1C
→ /, -2, /, /, 0
- O=C1c2ccccc2C(Nc2ccc3c(c2)OCCO3)N1c1ccccn1 (stereo not drawn)
→ /, -1, /, /, 0
- CCOC(=O)c1[nH]c(C)c(/C(O)=C2\C(=O)C(=O)N(CCCn3ccnc3)C2c2ccncc2)c1C (stereo not drawn)
→ /, -5, /, /, 3
- CCOC(=O)c1sc(=S)n(-c2ccccc2OC)c1N
→ /, -3, /, /, 1
- O=C(O)C1CC(=O)N(c2ccc(OCc3c(F)cccc3Cl)cc2)C1 (stereo not drawn)
→ i, 5, i, i, 1
- Cc1nc2ccccn2c1/C(O)=C1\C(=O)C(=O)N(CCCn2ccnc2)C1c1ccncc1 (stereo not drawn)
→ /, 0, /, /, -2
- CCOC(=O)c1[nH]c(C)c(C(=O)NC(C)(C)C)c1C
→ /, 4, /, /, -3
- Cc1nc2c(C)cccn2c1/C(O)=C1\C(=O)C(=O)N(CCN2CCOCC2)C1c1ccncc1 (stereo not drawn)
→ /, 1, /, /, 0
- O=C(CC1CCCCC1)NCc1ccccn1
→ i, -8, i, i, -2
- COCCOC(=O)c1[nH]c2c(c1C)C(=O)CC(c1cc(OC)ccc1OC)C2 (stereo not drawn)
→ /, 1, /, /, 8
- CC(=O)N1CCCc2cc(S(=O)(=O)N3CCc4ccccc4C3)ccc21
→ /, -1, /, /, -5
- Cc1ccc(-c2nc(CS(=O)(=O)CC(=O)N3CC(C)CC(C)C3)c(C)o2)cc1 (stereo not drawn)
→ /, 10, /, /, 9
- Cc1ccc(N2CCN(c3ccc(C)cc3)C2c2ccccn2)cc1
→ /, -7, /, /, 2
- COc1ccc(C(CC(=O)O)NC(C)=O)cc1OC (stereo not drawn)
→ /, 3, /, /, 0
- COc1ccc(C2OC(=O)CC2C(=O)NC(C)C)cc1 (stereo not drawn)
→ /, -3, /, /, 4
- Cc1ccc(S(=O)(=O)n2nc(OC(=O)c3c(-c4ccccc4Cl)noc3C)cc2N)cc1
→ /, 0, /, /, 1

Later entries
The line under a structure holds: VCAM-1 up imaging, FPRL1 ligand, VCAM-1 imaging, VCAM-1 inhibition, FPR binder
- c1ccc(CSCc2cn3ccsc3n2)cc1
→ i, 4, i, i, -2
- COc1ccc(NC(=O)CS(=O)CC(=O)Nc2cc(Cl)ccc2OC)cc1 (stereo not drawn)
→ i, 0, i, i, -5
- O=C(NCc1ccc2c(c1)OCO2)c1cccc2c1C(=O)N(C1CCCCC1)C2
→ i, 0, i, i, -3
- Cn1c(C(=O)NCCN2CCOCC2)cc2sccc21
→ /, -9, /, /, -9
- C=CCc1ccccc1OCC(O)CN1CCN(c2ccc(C)cc2)CC1 (stereo not drawn)
→ /, 1, /, /, -1
- Cc1ccc(NC(=O)CC2C(=O)NC3CCCCC3N2C(=O)c2ccc(F)cc2)cc1C (stereo not drawn)
→ i, 0, i, i, 3
- CS(=O)(=O)N1CCCC(C(=O)NCCN2CCC(Cc3ccccc3)CC2)C1 (stereo not drawn)
→ /, 1, /, /, -9
- COc1ccccc1CNC(=O)CN(c1ccc(C)cc1)S(=O)(=O)c1c(C)n[nH]c1C
→ /, -3, /, /, 2
- COc1ccc2c(c1OC)C(=O)N(c1ccc3c(c1)CCC3)C2=O
→ i, 9, i, i, 8
- CCNS(=O)(=O)c1c(C)cc(N2CCCC2=O)cc1C
→ i, 3, i, i, -6
- CCCCN(C)CCCNC(=O)c1cccc(N2CCCC2=O)c1
→ /, 3, /, /, 0
- CCOC(=O)c1cc2c(=O)n3ccccc3nc2n(CCOC)c1=NC(=O)c1ccncc1
→ /, 9, /, /, -4
- COc1ccc(C2(C(=O)Nc3cc(C)on3)CCOCC2)cc1
→ i, 5, i, i, -1
- NS(=O)(=O)c1ccc(NCc2c(F)cccc2Cl)cc1
→ i, -4, i, i, 0
- Cc1cc(N2C(=O)C3C4C=CC(C4)C3C2=O)ccc1Br (stereo not drawn)
→ i, 6, i, i, -3
- O=C(CN(CCc1ccccc1)C(=O)CNS(=O)(=O)c1ccccc1)NCC1CCCO1 (stereo not drawn)
→ i, 0, i, i, -6
- COC(=O)Cn1c(=NC(=O)CSCC(=O)Nc2cc(C)on2)sc2ccccc21
→ i, 0, i, i, 0
- COCCCN1C(=O)C(O)=C(C(C)=O)C1c1ccccn1 (stereo not drawn)
→ i, -3, i, i, 7
- CC(C)(NCc1ccccc1Cl)C(=O)O
→ /, 2, /, /, 2
- Cn1c(C(=O)N2CCN(c3ccc(Cl)cc3)CC2)cc2c(=O)n(C)c3ccccc3c21
→ /, -6, /, /, -3

Carrying on:
The line under a structure holds: VCAM-1 up imaging, FPRL1 ligand, VCAM-1 imaging, VCAM-1 inhibition, FPR binder
- Cc1cccc(-n2ccnc2SCC(=O)Nc2nccs2)c1C
→ /, 3, /, /, -1
- CCOc1ccccc1C(=O)N1CCN=C1SCc1cccnc1
→ /, 0, /, /, 6
- O=C(NCC1COc2ccccc2O1)c1ccccc1 (stereo not drawn)
→ i, -1, i, i, -4
- O=C(Cn1cc2c(n1)CCCC2)N1CCOCC1
→ /, 1, /, /, -4
- Cc1cc(N2C(=O)C(=O)/C(=C(/O)c3ccc(F)cc3)C2c2cccc(Br)c2)no1 (stereo not drawn)
→ /, -18, /, /, 3
- C=CCNc1nc(-c2ccccc2)nc(-n2ccnc2)n1
→ /, -4, /, /, -3
- O=C(Nc1cccc2ccccc12)N1CCN(c2ccccc2)CC1
→ i, 1, i, i, -4
- O=C(C1=C(O)C(=O)N(CCN2CCOCC2)C1c1cccs1)c1cc2ccccc2o1 (stereo not drawn)
→ /, 1, /, /, 6
- COCCNC(=O)C(c1ccncc1)N(C(=O)Cn1nnc2ccccc21)c1ccc(OC)cc1 (stereo not drawn)
→ i, 5, i, i, 10
- Cc1sc2ncnc(OCC(=O)N3CCN(S(=O)(=O)c4ccccc4)CC3)c2c1C
→ i, -5, i, i, -1
- Cc1cccn2c(=O)c3cc(C#N)c(=O)n(CCCN4CCOCC4)c3nc12
→ i, -10, i, i, -5
- COC(=O)c1ccc2nc(C(F)(F)F)[nH]c2c1
→ /, -2, /, /, 3
- Cc1cc(NC(=O)C2CCCCC2)nc2c1c(=O)oc1ccccc12
→ /, -15, /, /, -15
- CCc1ccccc1N(C)C(=O)CCc1nc(-c2ccc(C)cc2)no1
→ /, -4, /, /, -1
- Cc1cc2c(c(Sc3ccccc3)n1)C(=O)OC2
→ /, 0, /, /, -5
- O=C(NCc1ccco1)c1c[nH]c2ccc(S(=O)(=O)N3CCOCC3)cc2c1=O
→ /, 3, /, /, 5
- O=C(NCc1ccco1)C1CCCCN1S(=O)(=O)c1ccc(F)cc1 (stereo not drawn)
→ /, 6, /, /, -10
- COCCNC(=O)c1ccc(N2CCCCC2)c(NS(=O)(=O)c2ccc(C)cc2)c1
→ /, 0, /, /, 5
- O=C(NC1CCN(Cc2ccccc2)CC1)C1CCN(S(=O)(=O)c2cccc3nsnc23)CC1
→ /, 3, /, /, 1
- Cc1ccc2oc(=O)n(CCOc3ccccc3Cl)c2c1
→ /, -2, /, /, -10

Structures above that contain a COOH group:
The line under a structure holds: VCAM-1 up imaging, FPRL1 ligand, VCAM-1 imaging, VCAM-1 inhibition, FPR binder
- O=C(O)C1CC(=O)N(c2ccc(OCc3c(F)cccc3Cl)cc2)C1 (stereo not drawn)
→ i, 5, i, i, 1
- COc1ccc(C(CC(=O)O)NC(C)=O)cc1OC (stereo not drawn)
→ /, 3, /, /, 0
- CC(C)(NCc1ccccc1Cl)C(=O)O
→ /, 2, /, /, 2

New compounds follow
The line under a structure holds: VCAM-1 up imaging, FPRL1 ligand, VCAM-1 imaging, VCAM-1 inhibition, FPR binder
- COc1ccc(NC(=O)CSc2nccn2-c2cccc(OC)c2)cc1
→ /, -3, /, /, 0
- C=CC(=C)CC(NC)c1ccccc1 (stereo not drawn)
→ /, 7, /, /, -3
- Cc1noc(C)c1S(=O)(=O)N(C)CC(=O)NCc1ccccc1
→ /, 3, /, /, -4
- CCN(Cc1nc2ccccc2c(=O)[nH]1)Cc1cc(=O)oc2cc(C)c(C)cc12
→ i, -6, i, i, -6
- CCN1CCN(C(c2cccs2)C(C)NC(=O)c2cccc(OC)c2OC)CC1 (stereo not drawn)
→ /, 12, /, /, -3
- Cc1nc2ccccn2c1/C(O)=C1\C(=O)C(=O)N(CCN2CCOCC2)C1c1cccs1 (stereo not drawn)
→ i, 12, i, i, 0
- Cc1nnc2n(-c3ccc(Cl)cc3)c(=O)c3c4c(sc3n12)CN(C)CC4
→ i, 9, i, i, -2
- O=C1NCCN1Cc1cccc(Cl)c1
→ /, 2, /, /, 4
- COc1ccc(NC(=O)C(F)(OC)C(F)(F)F)c(OC)c1 (stereo not drawn)
→ /, 11, /, /, -7
- Cc1cc(C)n(S(=O)(=O)c2cc(Cl)ccc2Cl)n1
→ /, -2, /, /, 3
- CC(=O)c1c(C)nn(C(=O)c2cccs2)c1C
→ /, 2, /, /, -3
- O=C(c1cnn2c(C(F)F)cc(-c3ccccc3)nc12)N1CCN2CCCC2C1 (stereo not drawn)
→ i, -2, i, i, 2
- O=C(CNS(=O)(=O)c1ccc(Br)s1)N1CCN(c2ncccn2)CC1
→ i, 7, i, i, 0

Source: PubChem BioAssay

Only part of the results is shown, so the mix of outcomes need not match the whole.
